# Screens: PubChem, several laboratories
# Beta2AR agonist: human beta-2 adrenergic receptor agonism by FAP. AID 504454. 0.43% of 340,000 active. response, % (test concentration not listed). Am2.2-beta2AR cells, FAP receptor internalization, flow cytometry; reference of the scale not given here. P07550;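 active = response above a set limit, near 3 SD of response in nonfluorescent compounds, cut at about 42% in these data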;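 also: stock transfer was 100 nL into about 11 µL; a reference agonist was the positive control; negative values mostly stem from fluorescent compounds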
# Target sequence (P07550 whole entry, looked up): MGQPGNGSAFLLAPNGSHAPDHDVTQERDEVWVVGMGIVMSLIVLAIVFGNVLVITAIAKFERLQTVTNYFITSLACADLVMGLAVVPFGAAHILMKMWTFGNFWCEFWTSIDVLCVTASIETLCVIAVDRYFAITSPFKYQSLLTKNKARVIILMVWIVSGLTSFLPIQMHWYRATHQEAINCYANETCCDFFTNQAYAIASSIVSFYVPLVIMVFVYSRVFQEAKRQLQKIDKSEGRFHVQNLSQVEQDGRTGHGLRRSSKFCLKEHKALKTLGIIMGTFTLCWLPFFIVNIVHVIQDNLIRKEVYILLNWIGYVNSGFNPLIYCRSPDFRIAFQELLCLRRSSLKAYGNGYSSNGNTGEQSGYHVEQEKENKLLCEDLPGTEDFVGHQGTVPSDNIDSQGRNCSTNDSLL
# Ecoli rRNA inh: inhibitors of bacterial rRNA selective over humanized ribosomes | GFP signal change (wild-type ribosome), % (test concentration not listed) | 1.6% of 350,000 active | AID 720706 | E. coli WT GFP vs humanized-ribosome RFP mutants, fluorescence, 24 h; hits give low values; DMSO median 0, no signal -100;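 active = significant combined selectivity score with lowered wild-type GFP, culture density cut under 30%, mutant RFP and density less affected; inactive = any of these conditions unmet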; also: one replicate is shown; some compounds called inactive have numbers as strong as hits
# E coli growth: inhibitors of Escherichia coli growth; OD600, 23 h; hits give low values; OD600 absorbance (test concentration not listed); 0.21% of 330,000 active; AID 1053175;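 active = OD600 absorbance below the run mean of sample wells minus 3.6 SD, in any replicate, cut at about 0.56 in these data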;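 also: stock transfer was 300 nL into about 60 µL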
# HNF4A DNA FP: change in binding of human HNF4 alpha to DNA | P41235 | HNF4a-FITC DNA binding, fluorescence polarization, 1 h | activity change, % at 10 µM | 0.3% of 360,000 active | AID 1224865; in the data active = activity change above about 30%, passing the limit was not always enough;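 also: controls were the assay level and a saturating level of protein; the project sought stronger binding though the title names inhibitors; some compounds called inactive have numbers as strong as hits; positive values seem to mean higher polarization but the record does not say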
# ALR inh: blocks human ALR sulfhydryl oxidase activity. P55789. purified ALR, DTT oxidation, H2O2 HRP-luminol luminescence. inhibition, % (test concentration not listed). 3.8% of 290,000 active. AID 485317;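 active = mean and each replicate at 75% or more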;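 also: stock transfer was 7.5 nL into about 7.5 µL; 0% = neutral wells and 100% = wells with inactivated enzyme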
# Target sequence (P55789 whole entry, looked up): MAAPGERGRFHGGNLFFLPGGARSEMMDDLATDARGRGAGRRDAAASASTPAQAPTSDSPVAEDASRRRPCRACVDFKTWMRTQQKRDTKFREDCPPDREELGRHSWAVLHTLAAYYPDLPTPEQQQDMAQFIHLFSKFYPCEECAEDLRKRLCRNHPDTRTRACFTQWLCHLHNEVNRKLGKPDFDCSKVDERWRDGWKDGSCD
# UCH37 DUB inh: inhibitors of human deubiquitinating enzyme UCH37; purified proteasome/UCH37, Ub-AMC cleavage fluorescence; inhibition, % (test concentration not listed); 0.33% of 330,000 active;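 active = mean of two replicates above 20%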;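 also: 0% = compound-free wells with enzyme and 100% = wells lacking proteasome; stock transfer was 100 nL into about 20 µL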
#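 Test system – human UCH37 enzyme supplied as purified proteasome complex · Incubation – 30 min preincubation with enzyme, 25 min cleavage at room temperature · Detection – AMC fluorescence from Ub-AMC cleavage, excitation 355 nm, emission 460 nm · Benchmarks – no-proteasome wells (full inhibition) and compound-free wells (no inhibition)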
# FGF22 binding: shifts melting point of recombinant human FGF22 | Q9HCT0 | recombinant FGF22 thermal shift, SYPRO orange fluorescence; percent of sucrose octasulfate shift, DMSO zero | calls only at 9.99 µM | 1.5% of 340,000 active | AID 651658;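 active = melting point raised past a set limit in the mean and every replicate; three in four hits are not shown here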
# Target sequence (Q9HCT0 whole entry, looked up): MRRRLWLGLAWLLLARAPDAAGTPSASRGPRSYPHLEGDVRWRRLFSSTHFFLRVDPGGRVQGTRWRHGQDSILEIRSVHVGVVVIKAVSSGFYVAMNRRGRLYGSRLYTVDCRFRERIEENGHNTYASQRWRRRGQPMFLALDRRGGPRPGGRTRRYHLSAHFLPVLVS
# Ecoli rRNA inh OD600: further read-out of Ecoli rRNA inh, marked with its call; OD600 change, %; measured here: OD600 growth;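 optical density of the mix in the first replicate; 0 = DMSO median and -100 = no signal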
# Ecoli rRNA inh RFP: also measured in Ecoli rRNA inh; calls as there; RFP signal change, %; measured here: RFP humanized mutant strains;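 first replicate; 0 = DMSO median and -100 = no signal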
# Starred values were filed as active, the others as inactive; i = inactive; · = no result given; + = active, no number. Not all compounds are listed; count on the stated rates, not on these rows.
SMILES	Beta2AR agonist	Ecoli rRNA inh	Ecoli rRNA inh OD600	Ecoli rRNA inh RFP	E coli growth	HNF4A DNA FP	ALR inh	UCH37 DUB inh	FGF22 binding
O=[N+]([O-])c1cc(S(=O)(=O)C(F)(F)F)ccc1NCC1CCCO1 (stereo not drawn)	-4	-1	-10	0.8	0.68	1.3	-16	5.7	i
O=C(CC[C@H]1O[C@@H](n2ccc(=O)[nH]c2=O)[C@H](O)[C@@H]1O)N[C@H](Cc1ccccc1)C(=O)NCc1ccccc1	·	14	14	7.2	·	0.1	·	·	i
Cc1ccc2cc(COC(=O)c3cccc([N+](=O)[O-])c3)c(=O)[nH]c2c1	0	8	4	2.9	0.69	3.1	2	0.0	i
CCN(CC)CCCn1c2c(c(SCC(=O)Nc3cc(OC)cc(OC)c3)nc1=O)CCC2	4	8	4	2.6	·	4.8	-362	·	·
COC(C[C@H](O)CC(=O)[C@H](C)OCc1ccccc1)OC	6	6	-3	-6.1	·	2.0	·	0.7	i
CCOCCCNC(=S)N1C2CCC1CC(NC(=O)Nc1ccc(C(=O)OCC)cc1)C2 (stereo not drawn)	-11	-14	-9	-0.7	0.72	3.8	-3	0.4	i
CCc1ccc(N2CC(C(=O)Nc3cc(C)on3)CC2=O)cc1 (stereo not drawn)	2	10	-5	-1.1	0.65	-0.8	-3	0.5	i
O=[N+]([O-])c1ccc(N2CCN(C(=S)NC3CCCCC3)CC2)cc1	9	·	·	·	0.76	-1.2	-2	5.1	·
Cc1cccc(-n2c(O)c(C=Nc3ccccc3O)c3ccccc3c2=O)n1	24	-8	-8	5.2	0.68	6.0	98*	3.3	i
COc1ccc(-c2ccc(/C=C3/C(=N)N4C(C)=CSC4=NC3=O)o2)c([N+](=O)[O-])c1	8	·	·	·	0.7	6.4	-28	5.8	·
O=C(Nc1cccc(Cl)c1)c1cc(S(=O)(=O)N2CCCCC2)c[nH]1	-6	5	4	2.6	0.76	-2.1	-4	4.3	i
N#CC(C(N)=O)=C1CCC2(CC1)OCCCCO2	5	·	·	·	0.72	2.7	-4	-2.4	·
C[C@]12c3[nH]c4ccccc4c3CCN1C(=O)C(CC(=O)NCc1ccco1)C[C@@H]2C(=O)N1CCOCC1 (stereo partly drawn)	-2	5	7	0.6	·	1.4	0	·	i
O=C(O)c1ccc(NC(=O)c2ccccc2NC(=O)c2cccc(F)c2)cc1	3	-9	-5	-3.6	0.64	4.3	44	1.2	i
O=C(Nc1ccc2nc[nH]c2c1)c1ccco1	-9	·	·	·	0.68	4.5	-47	0.3	·
CN(Cc1ccon1)Cc1cn(C)nc1-c1ccc2c(c1)OCCO2	4	6	-9	-2.9	0.72	2.2	-2	1.7	i
O=C(Nc1ccc([N+](=O)[O-])cc1)C1COc2ccccc2O1 (stereo not drawn)	-4	1	7	1.5	0.61	0.0	-6	3.0	i
CN(C)C(=O)N1CCC(C(=O)NCc2ccc(F)cc2Cl)CC1	-8	·	·	·	0.67	0.9	0	2.3	·
O=C(N/N=C/c1ccc([N+](=O)[O-])o1)c1ccccc1-n1cccc1	13	-8	-12	1.3	·	-2.5	-37	·	i
Cc1ccc(OCC(=O)c2cc(C)n(-c3ccccc3)c2C)c([N+](=O)[O-])n1	-7	·	·	·	0.73	-1.8	-2	3.4	·
CC(=O)NC1(C(F)(F)F)N=C(c2ccccc2)NC1=O (stereo not drawn)	4	·	·	·	0.7	-5.6	1	4.6	·
COc1ccc(/C=N/NC(=O)c2ccc3nc[nH]c3c2)c(OC)c1OC	-4	6	8	1.1	·	-4.0	-6	·	i
CCCn1c(=NC(=O)CS(=O)(=O)c2ccccc2)sc2cc(S(C)(=O)=O)ccc21	4	2	4	0.1	0.7	0.9	-12	1.1	i
CC(C)Oc1ccc(NC(=O)Oc2ccccc2)cc1	-4	·	·	·	0.68	-1.0	-7	0.2	·
CCOC(=O)/C(C#N)=C/c1c(Oc2cccc(C)c2)nc2c(C)cccn2c1=O	-2	7	8	-4.2	0.69	30	-2	-3.5	i
O=C(NC1CC1)C1CCN(c2nc3ccccc3s2)CC1	-5	-4	-4	2.4	·	0.7	-2	·	i
O=C1NC[C@H](CCCCN2C[C@H](Cc3ccc(O)cc3)N(CCc3ccc(O)cc3)C(=O)C2=O)N(CCc2ccccc2)C1=O	·	5	0	2.1	·	-0.8	·	·	i
COc1ccc([C@H]2/C=C\CN(S(=O)(=O)/C=C/c3ccccc3)[C@@H](C)C(=O)N2Cc2ccc(F)cc2)cc1	-12	-3	3	-1.4	·	7.6	1	1.4	i
CC(=O)c1cccc(NC=C2C(=O)OC3(CCCCC3)OC2=O)c1	-3	·	·	·	0.74	0.2	1	5.6	·
Cc1cc(C)c(NC(=O)CCN2C(=O)c3ccccc3S2(=O)=O)c(C)c1	-5	2	6	0.4	0.66	7.1	-4	4.4	i
Cc1ccc2c(c1)NC(=O)C(CC(=O)NCCN(C)C)O2 (stereo not drawn)	-4	1	7	-1.4	0.66	3.4	·	1.1	i
Cc1nnc(N/N=C\c2ccc(-c3cccc(C(=O)O)c3)o2)n1N	-5	7	3	-4.3	·	-1.6	-12	·	i
CCCc1cc(=O)[nH]c(SCC(=O)N2CCc3ccccc3C2)n1	2	-1	-11	-1.0	0.69	-0.6	3	3.9	i
CCOC(=O)C1=C(C)NC(=O)NC1c1cc(C)sc1C (stereo not drawn)	-3	·	·	·	0.75	2.3	0	5.3	·
O=C(NCCOC(=O)c1ccccc1)c1ccccc1	-2	9	9	2.2	·	-4.3	-8	·	i
CC(C)=C1C2CC2C2C(C(=O)O)C12 (stereo not drawn)	-1	·	·	·	0.76	0.6	0	4.7	·
COc1ccccc1NC(=O)NC1(C(=O)N2CCCCCC2)CCCCC1	4	·	·	·	0.72	-2.7	2	5.1	·
CCOc1ccc(-c2nn[nH]n2)cc1	1	·	·	·	0.72	-3.0	·	0.2	·
CCCc1cc(=O)oc2cc(C)cc(OCC(=O)NC(Cc3c[nH]c4ccc(O)cc34)C(=O)O)c12 (stereo not drawn)	2	·	·	·	0.74	1.3	2	-16	i
O=C1NC(=S)S/C1=C\c1cc(Cl)cc(Cl)c1O	-6	-58	-76	-1.6	0.64	28	·	13	i

# Continued; the last three above are carried over.
SMILES	Beta2AR agonist	Ecoli rRNA inh	Ecoli rRNA inh OD600	Ecoli rRNA inh RFP	E coli growth	HNF4A DNA FP	ALR inh	UCH37 DUB inh	FGF22 binding
CCOc1ccc(-c2nn[nH]n2)cc1	1	·	·	·	0.72	-3.0	·	0.2	·
CCCc1cc(=O)oc2cc(C)cc(OCC(=O)NC(Cc3c[nH]c4ccc(O)cc34)C(=O)O)c12 (stereo not drawn)	2	·	·	·	0.74	1.3	2	-16	i
O=C1NC(=S)S/C1=C\c1cc(Cl)cc(Cl)c1O	-6	-58	-76	-1.6	0.64	28	·	13	i
CCc1nnc(NC(=O)CN2CCN(C3CCCCC3)CC2)s1	2	·	·	·	0.65	3.6	-1	6.0	·
Cn1c(=Nc2ccc(N3CCOCC3)cc2)ccc2ccccc21	-1	·	·	·	0.74	0.2	99*	3.8	·
CC(NC(=O)Cn1c(NCCO)nc2ccccc21)C1CC2CCC1C2 (stereo not drawn)	2	-9	-6	0.2	0.71	3.1	-2	-0.8	·
CN(Cc1ccccc1)C(=O)c1ccco1	1	11	3	-11	0.69	1.4	-1	2.6	i
Cc1nc2ccccc2c(=O)n1-c1ccc(F)c(NS(=O)(=O)c2ccccc2F)c1	3	-1	13	-2.0	0.65	1.9	·	0.5	i
CC1CCCC(NC(=O)C2N(CCCN3CCCC3)C(=O)C3C(C(=O)Nc4cccc(Cl)c4)C4C=CC32O4)C1C (stereo not drawn)	12	-1	6	0.4	0.6	3.2	-1	0.8	i
Cc1nc(C(=O)Nc2ccccc2)sc1C1(C)CC(c2cccnc2)=NO1 (stereo not drawn)	-5	-3	8	-1.7	0.79	-0.1	-9	1.3	i
C=CCOc1c(Br)cc(CNc2ccc(NC(=O)C(C)C)c(OC)c2)cc1OC	-1	·	·	·	0.67	-0.9	-21	1.9	·
CC1CCN(c2ncnc3c2cnn3Cc2ccc(Cl)cc2)CC1	-19	·	·	·	0.7	2.1	0	3.5	·
CC[n+]1c(/C=C/c2ccc(OC)c(OC)c2)ccc2ccccc21	-3	47	2	-0.2	0.65	2.1	20	-13	i
O=S(=O)(CC(CN1CCOCC1)N1CCOCC1)c1ccccc1 (stereo not drawn)	3	21	13	1.1	0.74	-0.4	3	2.8	i
CN(C)CCNC(=O)c1ccc2c(=O)n(Cc3ccc(Cl)cc3)c(=S)[nH]c2c1	19	-29	-39	-7.0	0.67	-1.9	3	5.5	i
Cc1ccc(NC(=O)c2cc(-c3cccs3)nc3ccccc23)nc1	0	-8	-7	-9.0	0.71	3.6	21	-54	i
COc1cc2c(cc1OC)CN(C(=S)Nc1ccc(C)cc1C)CC2	3	·	·	·	0.69	0.8	·	-2.4	·
N=C1/C(=C/c2cccs2)C(=O)N=C2SN=C(SCc3ccccc3)N12	12	·	·	·	0.65	-0.1	96*	1.0	·
COc1ccc(-c2cnc(C(O)c3ccc(CN4CCCCC4)cc3)[nH]2)cc1 (stereo not drawn)	·	8	13	-2.2	·	1.7	·	·	i
O=C(Nc1cccc(F)c1)Nc1nnc([C@@H]2C[C@H](O)[C@@H](CO)O2)s1	·	1	5	0.0	·	-2.0	·	·	i
CN(C)C(CNC(=O)Cc1cccc(C(F)(F)F)c1)c1ccco1 (stereo not drawn)	9	10	6	8.8	0.72	0.5	1	-3.3	i
O=S(=O)(Nc1cccc(-n2cnnn2)c1)c1ccc(Cl)cc1	4	-6	-18	0.5	0.63	-2.3	-2	0.2	+
Cc1noc(N)c1C(=O)Nc1ccc(F)c(Cl)c1	-15	·	·	·	0.65	-2.0	-9	3.1	·
Oc1ccc(CNc2ccc(F)cc2)c2cccnc12	17	·	·	·	0.67	2.5	·	-48	·
Cc1ccsc1C(=O)OCC(=O)N1CCOCC1	-8	·	·	·	0.71	-2.2	-3	1.8	·
N#CCOC(=O)C1CSC2(c3ccc(Br)cc3)CCC(=O)N12 (stereo not drawn)	5	16	15	-1.9	0.69	2.8	-2	0.3	i
COC(=O)C[C@H]1c2cc(F)ccc2S(=O)(=O)N1c1ccccc1	3	-1	-1	-3.0	·	0.3	·	0.1	i
Cc1ccc2nc(S(=O)(=O)O)[nH]c2c1	-7	·	·	·	0.66	1.8	-2	4.8	·
CCN(CC)C(=S)Nc1ccc(C(=O)OC)cc1	-6	-8	-1	3.0	0.67	1.7	-4	1.7	i
Cn1cc(CN2CCC(C(=O)N3CCCCC3)CC2)c(-c2ccccc2F)n1	-2	·	·	·	0.73	-4.5	-3	2.1	i
CCn1c2ccccc2c2cc(NC(=O)CSc3nccc(=O)[nH]3)ccc21	-2	-33	-48	-2.5	0.72	4.5	98*	3.8	i
O=S1(=O)N[C@@H](CC2CCCCC2)COc2cc(Br)ccc21	0	3	1	-3.2	0.72	-2.4	·	1.1	i
Cn1cc(-c2ccccc2C(=O)O)c(=O)c2ccccc21	4	11	14	0.2	0.68	2.1	·	-14	i
